High-throughput results deposited in PubChem BioAssay by Broad Institute.
rRNA inh HTS – selective bacterial rRNA inhibition in E. coli; E. coli WT GFP vs humanized-ribosome RFP mutants, fluorescence, 24 h; hits give low values; DMSO median 0, no signal -100; GFP signal change (wild-type ribosome), % (concentration not given with the values); 350,000 compounds, 1.6% hits;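 active = significant combined selectivity score with lowered wild-type GFP, culture density cut under 30%, mutant RFP and density less affected; inactive = any of these conditions unmet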; also: one replicate is shown; some compounds called inactive have numbers as strong as hits
MLL AF4-AF9 inh – MLL-AF4/AF9 protein interaction inhibition; AlphaScreen, biotin-AF4 peptide binding to FLAG-AF9; inhibition, % at 10 µM; 350,000 compounds, 0.47% hits;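 active = every replicate reaching a set inhibition limit, whatever the replicate mean, cut at about 25% in these data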;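 also: 0% = plate neutral control median and 100% = total signal loss; the record names both 10 and 1 µM as test concentration; the first replicate is given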
Target sequence (P42568 whole entry, looked up): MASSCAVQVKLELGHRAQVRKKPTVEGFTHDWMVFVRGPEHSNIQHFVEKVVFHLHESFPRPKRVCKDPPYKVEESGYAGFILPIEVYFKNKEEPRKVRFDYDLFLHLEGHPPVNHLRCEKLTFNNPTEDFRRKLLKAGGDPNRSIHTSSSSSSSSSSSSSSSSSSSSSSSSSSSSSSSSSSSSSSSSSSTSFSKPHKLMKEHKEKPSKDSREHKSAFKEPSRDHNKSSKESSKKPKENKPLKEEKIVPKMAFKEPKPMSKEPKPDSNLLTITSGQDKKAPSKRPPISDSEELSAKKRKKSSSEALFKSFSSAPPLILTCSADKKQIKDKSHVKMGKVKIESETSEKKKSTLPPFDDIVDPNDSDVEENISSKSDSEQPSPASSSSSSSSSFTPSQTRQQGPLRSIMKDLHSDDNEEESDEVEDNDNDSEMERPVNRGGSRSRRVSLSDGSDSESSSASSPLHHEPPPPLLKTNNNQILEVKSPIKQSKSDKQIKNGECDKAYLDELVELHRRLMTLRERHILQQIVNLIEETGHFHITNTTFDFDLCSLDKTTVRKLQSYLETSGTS
rRNA inh HTS OD600 – further read-out of rRNA inh HTS, marked with its call; OD600 change, %; measured here: OD600 growth;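 optical density of the mix in the first replicate; 0 = DMSO median and -100 = no signal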
rRNA inh HTS RFP – further read-out of rRNA inh HTS, marked with its call; RFP signal change, %; measured here: RFP humanized mutant strains;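 first replicate; 0 = DMSO median and -100 = no signal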
An asterisk follows results filed as active.

How did C[C@H]1CN([C@@H](C)CO)C(=O)c2cc(NC(=O)Nc3ccccc3)ccc2O[C@H]1CN(C)C do in these assays?
rRNA inh HTS: 5; MLL AF4-AF9 inh: -1.7; rRNA inh HTS OD600: 8; rRNA inh HTS RFP: -1.0

Results for COc1ccc(NC(=O)Nc2ccc3c(c2)C(=O)N([C@@H](C)CO)C[C@@H](C)[C@@H](CN(C)Cc2ccc(C(=O)O)cc2)OCCCC[C@@H](C)O3)cc1 ?
rRNA inh HTS: 2; MLL AF4-AF9 inh: -1.0; rRNA inh HTS OD600: 4; rRNA inh HTS RFP: -2.8

Results for CC(C)Sc1nc(-c2cccs2)nc2cc(Cl)ccc12 ?
rRNA inh HTS: 22; MLL AF4-AF9 inh: -3.2; rRNA inh HTS OD600: 11; rRNA inh HTS RFP: 3.1

How did O=S(=O)(CCNCCc1ccccc1)NC1CCCCC1 do in these assays?
rRNA inh HTS: -9; MLL AF4-AF9 inh: -2.2; rRNA inh HTS OD600: -3; rRNA inh HTS RFP: 0.7

How did C[C@@H]1CN([C@@H](C)CO)S(=O)(=O)c2ccc(C#C[C@@H](C)O)cc2O[C@@H]1CN(C)Cc1ccccn1 do in these assays?
rRNA inh HTS: -4; MLL AF4-AF9 inh: -0.5; rRNA inh HTS OD600: 6; rRNA inh HTS RFP: 0.7

How did COc1ccc(NC(=O)N(C)C[C@H]2Oc3cc(-c4ccc(C)cc4)ccc3S(=O)(=O)N([C@H](C)CO)C[C@H]2C)cc1 do in these assays?
rRNA inh HTS: -1; MLL AF4-AF9 inh: 1.4; rRNA inh HTS OD600: -16; rRNA inh HTS RFP: -0.4

How did C[C@H]1CN([C@@H](C)CO)C(=O)c2ccccc2-c2ccccc2CO[C@H]1CN(C)Cc1ccc(-c2ccccc2)cc1 do in these assays?
rRNA inh HTS: -2; MLL AF4-AF9 inh: 2.1; rRNA inh HTS OD600: 7; rRNA inh HTS RFP: 0.4

How did COc1ccc(S(=O)(=O)N(C)C[C@@H]2Oc3c(NS(=O)(=O)c4cn(C)cn4)cccc3C(=O)N([C@H](C)CO)C[C@H]2C)cc1 do in these assays?
rRNA inh HTS: 3; MLL AF4-AF9 inh: 0.3; rRNA inh HTS OD600: -3; rRNA inh HTS RFP: -1.9

How did O=C(C[C@H]1CC[C@H](NS(=O)(=O)c2ccccc2)[C@@H](CO)O1)N1CCC(Cc2ccccc2)CC1 do in these assays?
rRNA inh HTS: -7; MLL AF4-AF9 inh: 1.1; rRNA inh HTS OD600: -16; rRNA inh HTS RFP: 2.2

Results for C[C@@H]1CCCCO[C@@H](CN(C)C(=O)C2CCCCC2)[C@@H](C)CN([C@H](C)CO)C(=O)c2cc(NS(=O)(=O)c3ccc(F)cc3)ccc2O1 ?
rRNA inh HTS: 0; MLL AF4-AF9 inh: -4.3; rRNA inh HTS OD600: -3; rRNA inh HTS RFP: -2.1

How did c1ccc2ncc(-n3ccnc3)cc2c1 do in these assays?
rRNA inh HTS: 4; MLL AF4-AF9 inh: -0.9; rRNA inh HTS OD600: 0; rRNA inh HTS RFP: -3.9

How did C[C@H](CO)N1C[C@H](C)[C@H](CN(C)Cc2ccc(C(=O)Nc3ccccc3N)cc2)Oc2c(NC(=O)Nc3ccccc3)cccc2C1=O do in these assays?
rRNA inh HTS: 1; MLL AF4-AF9 inh: -1.3; rRNA inh HTS OD600: 1; rRNA inh HTS RFP: 4.8

Results for Cc1cc(C)n(-c2nc3c(c(=O)n(C)c(=O)n3C)n2Cc2cccc(Br)c2)n1 ?
rRNA inh HTS: 5; MLL AF4-AF9 inh: -8.4; rRNA inh HTS OD600: 0; rRNA inh HTS RFP: -0.9

Results for CC(=O)N[C@H]1CC[C@@H](CCNC(=O)C2CCCCC2)O[C@H]1CO ?
rRNA inh HTS: 1; MLL AF4-AF9 inh: -2.0; rRNA inh HTS OD600: 7; rRNA inh HTS RFP: -0.7

How did C[C@H](CO)N1C[C@H](C)[C@H](CN(C)C(=O)CCC(F)(F)F)OCCCC[C@H](C)Oc2ccc(NS(=O)(=O)c3cn(C)cn3)cc2C1=O do in these assays?
rRNA inh HTS: 1; MLL AF4-AF9 inh: -0.5; rRNA inh HTS OD600: 1; rRNA inh HTS RFP: -0.2

What do the screens show for `C[C@@H]1CN([C@H](C)CO)S(=O)(=O)c2ccc(C#C[C@@H](C)O)cc2O[C@H]1CN(C)C`?
rRNA inh HTS: 5; MLL AF4-AF9 inh: -2.6; rRNA inh HTS OD600: 13; rRNA inh HTS RFP: -2.5

Results for O=C(C[C@H]1CC[C@@H]2[C@H](COC[C@@H](O)CN2Cc2ccccc2F)O1)N1CCc2ccccc2C1 ?
rRNA inh HTS: -4; MLL AF4-AF9 inh: 1.0; rRNA inh HTS OD600: -11; rRNA inh HTS RFP: -2.7

Results for CO[C@H]1CN(C)C(=O)c2ccc(NC(=O)C3CCCC3)cc2OC[C@H](C)N(C(=O)CC2CC2)C[C@H]1C ?
rRNA inh HTS: 0; MLL AF4-AF9 inh: -2.4; rRNA inh HTS OD600: -8; rRNA inh HTS RFP: -0.2

How did O=C(C1CCOCC1)N1CC(=O)N2[C@@H](CO)[C@@H](c3ccc(C#Cc4cccc(F)c4)cc3)[C@@H]2C1 do in these assays?
rRNA inh HTS: 2; MLL AF4-AF9 inh: -1.9; rRNA inh HTS OD600: 1; rRNA inh HTS RFP: 0.6

Results for CCCC(=O)Nc1ccc2c(c1)C(=O)N(C)[C@@H]1CC[C@@H](CC(=O)NCCc3ccccc3)O[C@@H]1CO2 ?
rRNA inh HTS: 2; MLL AF4-AF9 inh: -0.7; rRNA inh HTS OD600: -4; rRNA inh HTS RFP: 0.3

What do the screens show for `CCC(=O)N1[C@@H](CO)[C@H](c2ccc(-c3ccccc3OC)cc2)C12CN(C(C)=O)C2`?
rRNA inh HTS: 3; MLL AF4-AF9 inh: -0.4; rRNA inh HTS OD600: 7; rRNA inh HTS RFP: -3.8

How did CCC(=O)N1CCC1(C)C(=O)Nc1ccc(OC(F)F)cc1 (configuration not stated) do in these assays?
rRNA inh HTS: 3; MLL AF4-AF9 inh: 3.2; rRNA inh HTS OD600: 8; rRNA inh HTS RFP: -1.4

How did CO[C@H]1CC[C@@H]2CCOc3c(C#N)cccc3C(=O)N(C)C[C@H](OC)[C@@H](C)C(=O)N(C)C[C@@H]1O2 do in these assays?
rRNA inh HTS: 1; MLL AF4-AF9 inh: -6.3; rRNA inh HTS OD600: 8; rRNA inh HTS RFP: -1.5

How did CCNC(=O)C[C@H]1CC[C@@H](NC(=O)NC2CCCCC2)[C@@H](CO)O1 do in these assays?
rRNA inh HTS: 2; MLL AF4-AF9 inh: 1.0; rRNA inh HTS OD600: 10; rRNA inh HTS RFP: -2.3

Results for Cc1noc(C)c1NC(=O)N(C)C[C@H]1Oc2ccc(NS(=O)(=O)c3ccc(Cl)cc3)cc2C(=O)N([C@@H](C)CO)C[C@H]1C ?
rRNA inh HTS: 5; MLL AF4-AF9 inh: -1.6; rRNA inh HTS OD600: 4; rRNA inh HTS RFP: 1.5

What do the screens show for `CN(C)CCCNC(=O)[C@H]1[C@H](CO)[C@H]2Cn3c(ccc(C4=CCCCC4)c3=O)[C@@H]1N2Cc1cocn1`?
rRNA inh HTS: 0; MLL AF4-AF9 inh: 2.2; rRNA inh HTS OD600: 1; rRNA inh HTS RFP: -1.2

Results for CCS(=O)(=O)N1CC(=O)N2[C@H](CO)[C@@H](c3ccc(C#CC4CCCCC4)cc3)[C@@H]2C1 ?
rRNA inh HTS: -30; MLL AF4-AF9 inh: 10; rRNA inh HTS OD600: -54; rRNA inh HTS RFP: 15

What do the screens show for `Cc1ccc(S(=O)(=O)Nc2ccc3c(c2)C(=O)N([C@H](C)CO)C[C@@H](C)[C@@H](CN(C)Cc2ccc(C(=O)O)cc2)OCCCC[C@H](C)O3)cc1`?
rRNA inh HTS: 1; MLL AF4-AF9 inh: -5.8; rRNA inh HTS OD600: 7; rRNA inh HTS RFP: -4.8

What do the screens show for `C[C@H](CO)N1C[C@H](C)[C@H](CN(C)Cc2ccc3c(c2)OCO3)Oc2ccc(NC(=O)CCCN(C)C)cc2C1=O`?
rRNA inh HTS: 3; MLL AF4-AF9 inh: -0.2; rRNA inh HTS OD600: 5; rRNA inh HTS RFP: -2.0

What do the screens show for `C[C@H](O)C#Cc1cnc2c(c1)C(=O)N([C@@H](C)CO)C[C@H](C)[C@@H](CN(C)CC1CCCCC1)O2`?
rRNA inh HTS: 4; MLL AF4-AF9 inh: 2.0; rRNA inh HTS OD600: 9; rRNA inh HTS RFP: -0.5

What do the screens show for `C[C@H](CO)N1C[C@H](C)[C@H](CN(C)CC2CCCCC2)Oc2ccc(NC(=O)Nc3ccc(C(F)(F)F)cc3)cc2CC1=O`?
rRNA inh HTS: -2; MLL AF4-AF9 inh: 2.5; rRNA inh HTS OD600: 14; rRNA inh HTS RFP: -2.9

What do the screens show for `C[C@H](CO)N1C[C@H](C)[C@H](CN(C)S(=O)(=O)c2ccc(F)cc2)Oc2c(NC(=O)NC3CCCCC3)cccc2C1=O`?
rRNA inh HTS: -11; MLL AF4-AF9 inh: 1.8; rRNA inh HTS OD600: -11; rRNA inh HTS RFP: 0.8

What do the screens show for `C[C@H]1CN([C@@H](C)CO)C(=O)c2cccc(NC(=O)Nc3ccc(F)cc3)c2O[C@H]1CN(C)Cc1ccc2c(c1)OCO2`?
rRNA inh HTS: 5; MLL AF4-AF9 inh: 4.8; rRNA inh HTS OD600: -3; rRNA inh HTS RFP: 1.9

What do the screens show for `COCC(=O)N(C)C[C@H]1Oc2cc(Br)ccc2S(=O)(=O)N([C@H](C)CO)C[C@@H]1C`?
rRNA inh HTS: 2; MLL AF4-AF9 inh: -3.0; rRNA inh HTS OD600: -1; rRNA inh HTS RFP: -4.5

How did COC(=O)Cc1nnn2c1CC(OC)c1ccccc1-2 (configuration not stated) do in these assays?
rRNA inh HTS: 8; MLL AF4-AF9 inh: -1.7; rRNA inh HTS OD600: 17; rRNA inh HTS RFP: 4.1

What do the screens show for `Cc1ccc(S(=O)(=O)Nc2ccc3c(c2)C(=O)N([C@@H](C)CO)C[C@H](C)[C@@H](CN(C)S(=O)(=O)c2c(C)noc2C)OCCCC[C@@H](C)O3)cc1`?
rRNA inh HTS: 0; MLL AF4-AF9 inh: -2.9; rRNA inh HTS OD600: -2; rRNA inh HTS RFP: 1.9

Part of the list above in order of formula weight, largest number first.
What do the screens show for `Cc1ccc(S(=O)(=O)Nc2ccc3c(c2)C(=O)N([C@@H](C)CO)C[C@H](C)[C@@H](CN(C)S(=O)(=O)c2c(C)noc2C)OCCCC[C@@H](C)O3)cc1`?
rRNA inh HTS: 0; MLL AF4-AF9 inh: -2.9; rRNA inh HTS OD600: -2; rRNA inh HTS RFP: 1.9

Results for Cc1noc(C)c1NC(=O)N(C)C[C@H]1Oc2ccc(NS(=O)(=O)c3ccc(Cl)cc3)cc2C(=O)N([C@@H](C)CO)C[C@H]1C ?
rRNA inh HTS: 5; MLL AF4-AF9 inh: -1.6; rRNA inh HTS OD600: 4; rRNA inh HTS RFP: 1.5

What do the screens show for `C[C@H](CO)N1C[C@H](C)[C@H](CN(C)S(=O)(=O)c2ccc(F)cc2)Oc2c(NC(=O)NC3CCCCC3)cccc2C1=O`?
rRNA inh HTS: -11; MLL AF4-AF9 inh: 1.8; rRNA inh HTS OD600: -11; rRNA inh HTS RFP: 0.8

What do the screens show for `C[C@H](CO)N1C[C@H](C)[C@H](CN(C)Cc2ccc3c(c2)OCO3)Oc2ccc(NC(=O)CCCN(C)C)cc2C1=O`?
rRNA inh HTS: 3; MLL AF4-AF9 inh: -0.2; rRNA inh HTS OD600: 5; rRNA inh HTS RFP: -2.0

How did COC(=O)Cc1nnn2c1CC(OC)c1ccccc1-2 (configuration not stated) do in these assays?
rRNA inh HTS: 8; MLL AF4-AF9 inh: -1.7; rRNA inh HTS OD600: 17; rRNA inh HTS RFP: 4.1

Next part
How did C[C@@H]1CN([C@@H](C)CO)C(=O)c2cc(C#CC3(O)CCCC3)cnc2O[C@H]1CN(C)S(C)(=O)=O do in these assays?
rRNA inh HTS: 1; MLL AF4-AF9 inh: -2.1; rRNA inh HTS OD600: 2; rRNA inh HTS RFP: -3.7

Results for COCCNC(=O)C[C@@H]1CC[C@@H]2[C@H](COc3ccc(NS(=O)(=O)c4ccc(Cl)cc4)cc3C(=O)N2C)O1 ?
rRNA inh HTS: 3; MLL AF4-AF9 inh: -0.7; rRNA inh HTS OD600: 13; rRNA inh HTS RFP: -1.3

What do the screens show for `C[C@@H]1CN([C@H](C)CO)C(=O)c2cc(NS(C)(=O)=O)ccc2O[C@@H](C)CCCCO[C@@H]1CN(C)S(=O)(=O)c1ccccc1`?
rRNA inh HTS: -3; MLL AF4-AF9 inh: 0.2; rRNA inh HTS OD600: 1; rRNA inh HTS RFP: -0.1

Results for C[C@H]1CN([C@@H](C)CO)C(=O)c2cc(C#CC3(O)CCCC3)cnc2O[C@H]1CN(C)S(=O)(=O)c1ccccc1 ?
rRNA inh HTS: 1; MLL AF4-AF9 inh: -6.0; rRNA inh HTS OD600: 3; rRNA inh HTS RFP: -2.1

How did C[C@H](CO)N1C[C@H](C)[C@@H](CN(C)Cc2ccncc2)Oc2ccc(NS(=O)(=O)c3cn(C)cn3)cc2CC1=O do in these assays?
rRNA inh HTS: 4; MLL AF4-AF9 inh: -2.2; rRNA inh HTS OD600: -6; rRNA inh HTS RFP: -0.2

How did CNc1ccc2ncc(-c3cccc(C(=O)N(C)C)c3)n2n1 do in these assays?
rRNA inh HTS: -1; MLL AF4-AF9 inh: 1.2; rRNA inh HTS OD600: -3; rRNA inh HTS RFP: -0.6

This is a subset; rates above refer to the full screens.
